Assay outcomes: PubChem BioAssay, Broad Institute
A1 apoptosis 2 = compounds inhibiting A1, read as caspase activation; caspase activation, % (concentration not given with the values); AID 2465; MEF A1-2A-BIM cells, caspase-Glo luminescence, 3 h; percent of clofoctol response, DMSO zero; 24,000 tested, under 10 active; in the data active = caspase activation above about 5.9%;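 note: wells of about 30 µL received 50 nL stock; the first replicate is given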
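Evaluation: Caspase-3/7 activity from luminescence increase | Assay system: A1-2A-BIM mouse embryonic fibroblasts | Quantity: 2500 MEF cells/well | Medium: RPMI-1640 plus 10% FBS | Detection: Caspase-Glo 3/7 luminescence, 1 h at room temperature | Dosing: 50 nL compound per well, pinned | Timing: Cells settled overnight, compound exposure 3 h at 37 °C, 5% CO2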
The depositor's hits bear a star. Only part of the results is shown, so the mix of outcomes need not match the whole.

SMILES	A1 apoptosis 2
C[C@@H]1CN([C@@H](C)CO)C(=O)c2cc(NC(=O)CCCCCC(=O)Nc3ccccc3N)ccc2O[C@@H]1CN(C)C(=O)Nc1ccc2c(c1)OCO2	0.6
C[C@H]1CCCCO[C@H](CN(C)S(=O)(=O)c2cn(C)cn2)[C@@H](C)CN([C@@H](C)CO)C(=O)c2cc(NC(=O)Nc3ccc4c(c3)OCO4)ccc2O1	0.2
COCC1=C2[C@@H](c3ccccc3)OB(O)C[C@@H]2[C@@H]2C(=O)N(C)C(=O)[C@@H]2C1	0.3
C[C@@H]1CN([C@@H](C)CO)C(=O)c2cc(NC(=O)c3ccccc3)ccc2O[C@@H](C)CCCCO[C@H]1CN(C)S(=O)(=O)c1ccc(Cl)cc1	0.8
C[C@@H]1CN([C@H](C)CO)C(=O)c2cccc(NC(=O)CCCCCC(=O)Nc3ccccc3N)c2O[C@H]1CN(C)S(C)(=O)=O	-0.2
C[C@H]1CN([C@@H](C)CO)C(=O)Cc2cc(NS(=O)(=O)c3ccc(Cl)cc3)ccc2O[C@H]1CN(C)CC1CCCCC1	3.2
C[C@H](CO)N1C[C@H](C)[C@H](CN(C)Cc2ccc(Oc3ccccc3)cc2)Oc2c(NC(=O)C3CCCCC3)cccc2C1=O	0.2
CC(C)=CCC[C@@H](C)C/C=N/NC(=O)c1ccccn1	-1.2
C[C@@H]1CCCCO[C@H](CN(C)C(=O)c2ccccc2)[C@@H](C)CN([C@H](C)CO)C(=O)c2cc(NC(=O)Nc3ccccc3)ccc2O1	0.5
C[C@@H]1CN([C@@H](C)CO)C(=O)c2cccc(NC(=O)c3ccncc3)c2O[C@H]1CN(C)Cc1ccc2c(c1)OCO2	-0.4
COc1ccc(S(=O)(=O)N(C)C[C@H]2Oc3ccc(N(C)C)cc3CC(=O)N([C@@H](C)CO)C[C@@H]2C)cc1	-1.4
C[C@@H]1CCCCO[C@@H](CN(C)C(=O)Nc2ccc(C(F)(F)F)cc2)[C@H](C)CN([C@H](C)CO)C(=O)c2cc(NS(=O)(=O)c3ccccc3)ccc2O1	-1.7

Three neighbouring compounds out of the list so far:
SMILES	A1 apoptosis 2
C[C@@H]1CN([C@@H](C)CO)C(=O)c2cccc(NC(=O)c3ccncc3)c2O[C@H]1CN(C)Cc1ccc2c(c1)OCO2	-0.4
COc1ccc(S(=O)(=O)N(C)C[C@H]2Oc3ccc(N(C)C)cc3CC(=O)N([C@@H](C)CO)C[C@@H]2C)cc1	-1.4
C[C@@H]1CCCCO[C@@H](CN(C)C(=O)Nc2ccc(C(F)(F)F)cc2)[C@H](C)CN([C@H](C)CO)C(=O)c2cc(NS(=O)(=O)c3ccccc3)ccc2O1	-1.7

Next part:
SMILES	A1 apoptosis 2
C[C@@H]1CN([C@@H](C)CO)C(=O)Cc2cc(NS(=O)(=O)c3cccs3)ccc2O[C@H]1CN(C)S(=O)(=O)c1cccs1	0.6
CC(C)NC(=O)N(C)C[C@@H]1Oc2ccc(N(C)C)cc2CC(=O)N([C@@H](C)CO)C[C@@H]1C	-0.3
C[C@@H]1CN([C@@H](C)CO)C(=O)c2cc(NC(=O)CCCN(C)C)ccc2O[C@@H](C)CCCCO[C@H]1CN(C)Cc1ccccc1	2.1
C[C@@H]1CN([C@H](C)CO)C(=O)c2cccc(NC(=O)c3ccncc3)c2O[C@@H]1CN(C)Cc1ccc(C(F)(F)F)cc1	0.1
C[C@@H]1CCCCO[C@H](CN(C)S(=O)(=O)c2cccs2)[C@@H](C)CN([C@H](C)CO)C(=O)c2cc(N(C)C)ccc2O1	-0.1
COc1ccc(NC(=O)Nc2ccc3c(c2)C(=O)N([C@H](C)CO)C[C@H](C)[C@H](CN(C)C(=O)Nc2ccc(C(F)(F)F)cc2)O3)cc1	0.6
COc1ccc(NC(=O)N(C)C[C@H]2OCCCC[C@H](C)Oc3ccc(N(C)C)cc3C(=O)N([C@@H](C)CO)C[C@@H]2C)cc1	1.0
C[C@H](CO)N1C[C@H](C)[C@@H](CN(C)Cc2ccc(C(=O)O)cc2)Oc2ccc(NC(=O)Cc3ccccc3)cc2C1=O	-0.6
C[C@H](CO)N1C[C@H](C)[C@H](CN(C)S(=O)(=O)c2ccccc2)Oc2ccc(NC(=O)Nc3ccc4c(c3)OCO4)cc2CC1=O	-0.6
COc1ccc(NC(=O)N(C)C[C@@H]2OCCCC[C@H](C)Oc3ccc(NC(=O)C4CCCCC4)cc3C(=O)N([C@H](C)CO)C[C@H]2C)cc1	0.2
O=C(N/N=C/c1ccc(F)c(Oc2ccccc2)c1)c1ccccc1O	-4.6
C[C@@H]1CN([C@H](C)CO)C(=O)c2cc(NC(=O)NC3CCCCC3)ccc2O[C@@H](C)CCCCO[C@@H]1CN(C)S(=O)(=O)c1ccccc1	0.9
C[C@H](CO)N1C[C@H](C)[C@H](CN(C)CC2CC2)Oc2ccc(NC(=O)C3CC3)cc2CC1=O	-0.1
C[C@H](CO)N1C[C@H](C)[C@H](CN(C)C)Oc2c(NC(=O)Nc3cccc4ccccc34)cccc2C1=O	-0.1
COc1ccc(CN(C)C[C@@H]2Oc3c(NS(C)(=O)=O)cccc3C(=O)N([C@H](C)CO)C[C@@H]2C)cc1	-0.8
C[C@H]1CN([C@@H](C)CO)C(=O)c2cc(NC(=O)C3CCCCC3)ccc2O[C@H]1CN(C)S(C)(=O)=O	-0.3
C[C@@H]1CN([C@@H](C)CO)C(=O)c2cc(NC(=O)Nc3ccc(F)cc3)ccc2O[C@@H]1CN(C)C(=O)Nc1ccccc1	-0.9
Cc1cc(C(=O)Nc2cccc3c2O[C@@H](CN(C)Cc2ccc(C(=O)O)cc2)[C@H](C)CN([C@@H](C)CO)C3=O)n(C)n1	0.1
CNC[C@@H]1OCCCC[C@H](C)Oc2ccc(NC(=O)CCC(F)(F)F)cc2C(=O)N([C@H](C)CO)C[C@H]1C	-0.3
C[C@H]1CCCCO[C@H](CN(C)CC2CCCCC2)[C@@H](C)CN([C@@H](C)CO)C(=O)c2cc(NS(=O)(=O)c3cn(C)cn3)ccc2O1	-1.3
C[C@H]1CN([C@@H](C)CO)C(=O)CCCn2cc(nn2)CO[C@@H]1CN(C)Cc1cccc2c1OCCCO2	1.0
COc1ccc(S(=O)(=O)Nc2cccc3c2O[C@@H](CN(C)S(=O)(=O)c2ccccc2)[C@H](C)CN([C@@H](C)CO)C3=O)cc1	-0.4
COc1ccc(S(=O)(=O)Nc2ccc3c(c2)CC(=O)N([C@@H](C)CO)C[C@@H](C)[C@@H](CN(C)CC2CC2)O3)cc1	0.9
COc1ccc(S(=O)(=O)Nc2cccc3c2O[C@@H](CN(C)S(=O)(=O)c2ccc(OC)cc2)[C@H](C)CN([C@H](C)CO)C3=O)cc1	1.2

Given bar-delimited: four of the compounds above
Compound | A1 apoptosis 2
C[C@H]1CN([C@@H](C)CO)C(=O)CCCn2cc(nn2)CO[C@@H]1CN(C)Cc1cccc2c1OCCCO2 | 1.0
C[C@H](CO)N1C[C@H](C)[C@H](CN(C)C)Oc2c(NC(=O)Nc3cccc4ccccc34)cccc2C1=O | -0.1
C[C@@H]1CN([C@@H](C)CO)C(=O)c2cc(NC(=O)Nc3ccc(F)cc3)ccc2O[C@@H]1CN(C)C(=O)Nc1ccccc1 | -0.9
COc1ccc(S(=O)(=O)Nc2ccc3c(c2)CC(=O)N([C@@H](C)CO)C[C@@H](C)[C@@H](CN(C)CC2CC2)O3)cc1 | 0.9

Continuation.
SMILES	A1 apoptosis 2
COc1ccc([Si](C)(C)[C@H]2[C@H](CCn3cc([C@H](O)c4ccccc4)nn3)O[C@@]3(C(=O)N(Cc4ccc(N5CCOC5=O)cc4)c4ccccc43)[C@@H]2C)cc1	-0.9
Cc1noc(C)c1S(=O)(=O)Nc1ccc2c(c1)C(=O)N([C@H](C)CO)C[C@H](C)[C@@H](CN(C)C(=O)Nc1ccc3c(c1)OCO3)OCCCC[C@@H](C)O2	-0.5
C[C@H](CO)N1C[C@H](C)[C@H](CN(C)S(=O)(=O)c2cccs2)Oc2c(NC(=O)CCCCCC(=O)Nc3ccccc3N)cccc2C1=O	1.1
C[C@@H]1CN([C@H](C)CO)C(=O)c2cc(NC(=O)CCC(F)(F)F)ccc2O[C@H]1CN(C)Cc1ccc(C(=O)Nc2ccccc2N)cc1	0.4
C[C@H]1CN([C@@H](C)CO)C(=O)c2cc(NC(=O)c3ccncc3)ccc2O[C@H]1CN(C)C(=O)Nc1ccc2c(c1)OCO2	-0.2
CC(C)NC(=O)N(C)C[C@@H]1Oc2c(NC(=O)CCCCCC(=O)Nc3ccccc3N)cccc2C(=O)N([C@H](C)CO)C[C@H]1C	0.6
C[C@H]1CN([C@@H](C)CO)C(=O)Cc2cc(NS(C)(=O)=O)ccc2O[C@H]1CN(C)S(=O)(=O)c1ccc(F)cc1	0.2
CC(C)NC(=O)Nc1ccc2c(c1)CC(=O)N([C@@H](C)CO)C[C@@H](C)[C@H](CN(C)S(=O)(=O)c1ccccc1)O2	0.8
C[C@@H]1CCCCO[C@@H](CN(C)Cc2ccncc2)[C@H](C)CN([C@H](C)CO)C(=O)c2cc(NC(=O)C3CCCCC3)ccc2O1	-0.9
Cc1noc(C)c1S(=O)(=O)Nc1ccc2c(c1)C(=O)N([C@H](C)CO)C[C@@H](C)[C@@H](CN(C)C)O2	-0.2
C[C@@H]1CCCCO[C@@H](CN(C)C(=O)Nc2ccc(F)cc2)[C@H](C)CN([C@H](C)CO)C(=O)c2cc(NC(=O)c3ccncc3)ccc2O1	-1.9
Cc1noc(C)c1S(=O)(=O)Nc1ccc2c(c1)C(=O)N([C@H](C)CO)C[C@@H](C)[C@H](CN(C)Cc1ccccc1)OCCCC[C@@H](C)O2	-0.9

Among those listed so far, these have a COOH group:
SMILES	A1 apoptosis 2
C[C@H](CO)N1C[C@H](C)[C@@H](CN(C)Cc2ccc(C(=O)O)cc2)Oc2ccc(NC(=O)Cc3ccccc3)cc2C1=O	-0.6
Cc1cc(C(=O)Nc2cccc3c2O[C@@H](CN(C)Cc2ccc(C(=O)O)cc2)[C@H](C)CN([C@@H](C)CO)C3=O)n(C)n1	0.1

Other records.
SMILES	A1 apoptosis 2
C[C@H]1CN([C@@H](C)CO)C(=O)Cc2cc(NC(=O)Nc3ccc4c(c3)OCO4)ccc2O[C@H]1CN(C)S(=O)(=O)c1cn(C)cn1	0.7
C[C@H](CO)N1C[C@H](C)[C@H](CN(C)C(=O)Nc2ccccc2)Oc2ccc(NC(=O)Cn3cnnn3)cc2CC1=O	0.5
Cc1noc(C)c1NC(=O)N(C)C[C@@H]1Oc2ccc(NS(=O)(=O)c3ccc(Cl)cc3)cc2CC(=O)N([C@H](C)CO)C[C@@H]1C	0.7
CNC[C@H]1Oc2ccc(NS(=O)(=O)c3c(C)noc3C)cc2C(=O)N([C@H](C)CO)C[C@@H]1C	-1.0
COc1ccc(CN(C)C[C@H]2Oc3ccc(NS(=O)(=O)c4ccc(C)cc4)cc3CC(=O)N([C@@H](C)CO)C[C@@H]2C)cc1	0.9
COc1ccc(CN(C)C[C@H]2Oc3ccc(NS(=O)(=O)c4ccc(OC)cc4)cc3C(=O)N([C@@H](C)CO)C[C@@H]2C)cc1	1.8
O=C(N/N=C/c1ccc(OCCO)cc1)c1ccccn1	-9.6
C[C@@H]1CN([C@@H](C)CO)C(=O)Cc2cc(NC(=O)Cc3cn(C)c4ccccc34)ccc2O[C@@H]1CN(C)S(=O)(=O)c1cccs1	-0.2
C[C@@H]1CN([C@H](C)CO)C(=O)c2cc(NS(=O)(=O)c3cn(C)cn3)ccc2O[C@H]1CN(C)S(=O)(=O)c1ccc(Cl)cc1	0.7
C[C@@H]1CN([C@H](C)CO)C(=O)c2cc(NC(=O)Nc3ccc(C(F)(F)F)cc3)ccc2O[C@@H](C)CCCCO[C@H]1CN(C)S(=O)(=O)c1cccs1	2.6
C[C@H](CO)N1C[C@H](C)[C@H](CN(C)C(=O)Nc2ccc(C(F)(F)F)cc2)Oc2c(NC(=O)C3CCOCC3)cccc2C1=O	0.5
COc1ccc(S(=O)(=O)N(C)C[C@H]2Oc3c(NS(=O)(=O)c4cccs4)cccc3C(=O)N([C@H](C)CO)C[C@@H]2C)cc1	-1.8
COc1ccc(S(=O)(=O)Nc2ccc3c(c2)CC(=O)N([C@@H](C)CO)C[C@H](C)[C@@H](CN(C)C(=O)Nc2cccc4ccccc24)O3)cc1	0.4
C[C@@H]1CCCCO[C@H](CN(C)S(C)(=O)=O)[C@H](C)CN([C@@H](C)CO)C(=O)c2cc(N(C)C)ccc2O1	0.1
C[C@H](CO)N1C[C@H](C)[C@@H](CN(C)C(=O)Nc2ccc3c(c2)OCO3)Oc2ccc(NS(=O)(=O)c3ccc(F)cc3)cc2CC1=O	0.4
C[C@H](CO)N1C[C@H](C)[C@@H](CN(C)C(=O)NC2CCCCC2)Oc2ccc(NC(=O)CCCN(C)C)cc2C1=O	0.8
C[C@H](CO)N1C[C@H](C)[C@H](CN(C)C(=O)Nc2ccc(C(F)(F)F)cc2)OCCCC[C@H](C)Oc2ccc(NS(=O)(=O)c3cccs3)cc2C1=O	-0.6
Cc1noc(C)c1NC(=O)N(C)C[C@@H]1Oc2c(NS(=O)(=O)c3ccc(Cl)cc3)cccc2C(=O)N([C@H](C)CO)C[C@@H]1C	1.9
C[C@@H]1CN([C@@H](C)CO)C(=O)c2cccc(NC(=O)C3CC3)c2O[C@H]1CN(C)C(=O)Nc1cccc2ccccc12	0.3
COc1ccc(S(=O)(=O)Nc2ccc3c(c2)CC(=O)N([C@H](C)CO)C[C@@H](C)[C@H](CN(C)C(=O)NC2CCCCC2)O3)cc1	0.4
O=C(NCc1ccccc1)C1=C[C@H](c2ccc(C(F)(F)F)cc2)C[C@H](OCCCCO)O1	-0.8
Cc1ccc(S(=O)(=O)Nc2ccc3c(c2)C(=O)N([C@@H](C)CO)C[C@@H](C)[C@@H](CN(C)S(=O)(=O)c2cccs2)OCCCC[C@@H](C)O3)cc1	0.6
C[C@H](CO)N1C[C@H](C)[C@@H](CN(C)C(=O)c2ccc3ccn(C)c3c2)OCc2cn(nn2)CCCC1=O	0.0
